Screening results as filed in PubChem BioAssay.
TRPML1 inh: human mucolipin-1 channel inhibition; TRPML1-inducible cells, Ca2+ dye fluorescence, FDSS; active compounds read low; inhibition of EC80 agonist-evoked calcium signal; Q9GZU1; hit rate 0.02% among 390,000; activity change, negative = inhibition, % (no concentration beside the values); in the data active means activity change below about -50%; inconclusive means about -30% to -50%; inactive means above about -30%;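 note: stimulus is agonist 54-4 at its EC80 concentration; % is set by controls: 0 for no effect and ±100 for the full control effect; compound concentration not given in the record; the text of the record puts the active cut at -80%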
Target sequence (Q9GZU1 whole entry, looked up): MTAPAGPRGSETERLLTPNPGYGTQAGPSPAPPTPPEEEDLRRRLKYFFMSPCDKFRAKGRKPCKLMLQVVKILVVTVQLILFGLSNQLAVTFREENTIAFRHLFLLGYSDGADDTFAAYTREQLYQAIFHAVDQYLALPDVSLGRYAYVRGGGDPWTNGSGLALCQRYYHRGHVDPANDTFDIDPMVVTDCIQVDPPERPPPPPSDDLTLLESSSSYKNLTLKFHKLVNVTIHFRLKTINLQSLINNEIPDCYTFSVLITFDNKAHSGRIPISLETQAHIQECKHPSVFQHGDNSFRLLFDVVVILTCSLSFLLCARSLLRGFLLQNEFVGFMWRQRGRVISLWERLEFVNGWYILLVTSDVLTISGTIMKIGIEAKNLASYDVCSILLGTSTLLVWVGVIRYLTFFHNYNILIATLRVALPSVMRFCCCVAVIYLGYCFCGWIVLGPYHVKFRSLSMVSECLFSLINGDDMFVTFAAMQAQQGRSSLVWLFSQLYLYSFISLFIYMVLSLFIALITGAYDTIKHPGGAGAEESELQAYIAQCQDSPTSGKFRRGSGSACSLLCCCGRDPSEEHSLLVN
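Calcium fluorescence in TRPML1-DL cells induced overnight with Tet: a 110 s read after compound pin addition, then a 110 s antagonist read after challenge with 54-4 at 4 uM final (EC80).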
ClpP mod: qHTS Assay for Activators of ClpP | purified B. subtilis ClpP, FRET peptide cleavage, 20 min | Potency, µM (series often up to 57.5 µM), for inactives: at the top dose activity change, negative = active | AID 651965, 2013 | ATP-dependent Clp protease proteolytic subunit (Bacillus subtilis (strain 168)), P80244 | hit rate 1.9% among 340,000; active = well fitted falling curve with a large enough effect; inconclusive = small, poorly fitted or top-dose-only effect; inactive = no such curve, though single readings can be large or run the other way; note: potency is the fitted concentration of half-maximal effect; the source files actives as falling curves though it sought activators and does not explain the sign; nearly all actives have a fitted effect of over 65% in size; many hits overshoot -100%
Target sequence (P80244 whole entry, looked up): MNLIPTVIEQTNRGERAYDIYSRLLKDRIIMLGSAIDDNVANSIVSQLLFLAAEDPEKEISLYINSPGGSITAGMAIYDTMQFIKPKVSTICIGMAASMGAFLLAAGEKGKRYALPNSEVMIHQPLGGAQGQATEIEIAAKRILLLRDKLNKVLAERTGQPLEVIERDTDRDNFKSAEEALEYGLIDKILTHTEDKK
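Purified B. subtilis ClpP, 10 microg/mL final in Tris/HCl pH8 with KCl, BSA, glycerol and Tween-20, cleaved an Abz/nitrotyrosine-quenched decapeptide. Fluorescence (ex 320, em 430) was read at 0 and 20 min at room temperature. Delta was normalized to 5.8 microM ADEP and DMSO/no-enzyme controls.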
gsp agonist: gsp mutant agonism | hit rate 0.13% among 340,000 | Potency, µM (top dose mostly 76.9 µM), inactives show at the top dose activation (cAMP increase), actives largely listed as activators | gsp mutant cells, cAMP HTRF, 30 min; control for the full effect not named in the record; active = well fitted activation curve with a large enough effect; inconclusive = small, poorly fitted or top-dose-only effect, or another doubt; inactive = no such curve, though single readings can be large or run the other way; cell line not stated here;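 note: phosphodiesterase inhibitor Ro 20-1724 added with compounds to block cAMP breakdown; potency is the fitted concentration of half-maximal effect; nearly all actives have a fitted effect of over 60% in size; about a fifth of the inactives were tested at one dose only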
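Cells stably selected in G418 were plated at 2000/well, grown 16-24 hr, then given compounds in DMSO with the PDE inhibitor […] (300 uM solution added) for 30 min at 37C; cAMP was read by HTRF.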
TRPML1 ag: activates the human TRPML1 channel. TRPML1-expressing cells, Ca2+ dye fluorescence, FDSS; host cell line not named in the record; reference of the full effect not given here. Q9GZU1. activation, % (test concentration not listed). hit rate 0.12% among 410,000; in the data active = activation above about 50%; inconclusive = about 30% to 50%; inactive = below about 30%; note: 0% is about no effect; the text of the record puts the active cut at 80%
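Cells: TRPML1-DL, 1X Tet inducer, ~16 h at 37 degrees C/5% CO2. Dye: ABD Ca8 no-wash + quencher, 45-90 min RT. Read: 10 s baseline, compound add, 110 s agonist phase; 54-4 EC80 (4uM final), 110 s antagonist phase.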
Menin-MLL FL inh: displaces fluorescein MLL peptide from human menin. Fluorescence polarization, fluorescein-MLL peptide displacement from menin. FP activity change, % at 61.4 µM. 290,000 tested, under 10 active; inconclusive = falling polarisation curve, or a change in total fluorescence; inactive = total fluorescence flat and polarisation flat or rising; no compound was filed as active; the % refers to the polarisation; negative = inhibition;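 note: % of control where 0% means no effect; inhibitors lower the polarisation; unlabelled MLL peptide was the positive control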
gsp antag: antagonists of gsp mutant (McCune-Albright syndrome) | gsp-mutant cells, cAMP HTRF, 30 min; control for the full effect not named in the record | Potency, µM (series often up to 76.9 µM), for inactives: top-dose activity change, negative = inhibition, hits mostly inhibitors | hit rate 0.4% among 340,000 | AID 624288; active = falling curve of any shape with a large fitted effect; inconclusive = falling curve, mostly with a smaller effect; inactive = flat or rising curve; cell line not stated here;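 note: intracellular cAMP measured with PDE inhibitor Ro 20-1724 present during compound exposure; potency is the fitted concentration of half-maximal effect; % is set by controls: 0 for no effect and ±100 for the full control effect; nearly all actives have a fitted effect of over 65% in size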
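Cells, 2000/well, grown 16–24 h in DMEM 10% FBS with 0.5 mg/ml G418, then compounds plus […] (300 uM addition stock), 30 min at 37C. cAMP read by HTRF (cAMP-d2 and anti-cAMP antibody-K in lysis buffer) after 30 min RT.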
The depositor's hits bear a star; u = inconclusive; x = not tested or not shown; [ ] = another dose, or the depositor's remark. Hits appear at their usual frequency; about 2.1% have a hit in one of these screens.

SMILES	TRPML1 inh	ClpP mod	gsp agonist	TRPML1 ag	Menin-MLL FL inh	gsp antag
O=C(NCc1ccc(F)cc1)C(c1ccco1)N(C(=O)c1csnn1)C1CC1 (stereo unspecified)	-5	x	-2%	-0.7	0.1	9%
CCN(c1ccccc1)S(=O)(=O)c1cc(NC(=O)C2CC2)ccc1Cl	3	0.8%	-86%[inhibitor]	-0.5	x	3%
Cc1ccc(S(=O)(=O)Oc2cccc(N3C(=O)C4CC=CCC4C3=O)c2)cc1 (stereo unspecified)	-6	2.7%	-39%[inhibitor]	0.7	2.4	-6%
CCOc1ccc(-n2cnc3sc4c(c3c2=O)CCCC4)cc1	9	-9.0%	2%[15.4 µM]	0.9	3.9	-14%
FC(F)(F)c1cc(-c2ccco2)nc(NCc2ccc(Cl)cc2)n1	2	28µM*	-37%[inhibitor]	0.4	0.5	7%
COc1cccc2[nH]c(C(=O)NCc3ccc4c(c3)CCN4C(=O)c3ccc(F)cc3)cc12	13	-1.7%	x	2.3	x	x
COc1ccccc1NC(=O)N1CCN(c2ccccc2F)CC1	12	-0.9%	5%	-0.6	-0.8	1%
C=CCN1C(=O)C2(OCCCO2)c2c(C)ccc(C)c21	-27	x	-9%	0.2	1.5	-2%
COc1cc2c(cc1OC)C1=C(C#N)CC/C(=N\S(=O)(=O)c3cccc(Cl)c3)N1CC2	0	u	6%	-0.5	11	1%
O=C(NCc1nc2ccccc2[nH]1)c1ccc(S(=O)(=O)N2CCCC2)cc1	-7	1.6%	4%[15.4 µM]	0.1	-5.8	-14%
COc1cc(/C=C/C(=O)O)cc(S(=O)(=O)Nc2ccc3c(c2)OCO3)c1OC	14	x	29%	-0.3	-0.3	8%
COc1cccc(C(=O)c2sc(NC(C)C)nc2N)c1	10	0.8%	-28%	2.3	4.9	8%
Cc1ccc(C(=O)NC2CC(C)(C)NC(C)(C)C2)cc1S(=O)(=O)N1CCOCC1	6	-1.4%	18%	0.0	x	11%
CCCCCN1CC(=O)N2[C@@H](Cc3c([nH]c4ccccc34)C2(C)C)C1=O	2	x	-9%	1.2	-8.2	-10%
CC1CC(C)CN(C(=O)Cn2c(=O)n(CCCCC(=O)NCc3ccco3)c(=O)c3ccccc32)C1 (stereo unspecified)	8	-10%	-2%	0.4	2.3	-11%
O=C(CNC(=O)c1ccc(Br)o1)OCc1ccc(Br)cc1	12	-2.0%	-37%	1.5	x	-6%
CCOC(=O)c1c(C)nc(-c2ccccc2)nc1NC(C)=O	-14	-7.5%	-5%	0.6	-0.3	-7%
COc1ccccc1OCCC(=O)OCC(=O)Nc1ccc(Br)cc1F	2	x	-9%[15.4 µM]	0.9	2.8	5%
COc1cc(CNC2CCCCCC2)cc(OC)c1OC	7	1.4%	9%	-0.3	-0.3	9%
Cc1ccc(-c2nc(-c3ccncc3)no2)c(Cl)c1	-8	1.3%	-33%[inhibitor]	-0.3	-5.4	3%
Cc1ccc(NC(=O)CN2CCSc3ccc(S(=O)(=O)N4CCCC4)cc32)cc1C	12	u	x	1.2	x	x
COc1ccc(CN2CCNC(=O)C2CC(=O)N2CCc3ccccc3C2)c(OC)c1 (stereo unspecified)	u	x	-10%[15.4 µM]	-0.4	8.3	11%
Clc1ccccc1CNCc1ccc2c(c1)OCO2	23	-1.9%	u	-0.2	x	x
NC(=O)C1(N2CCCCC2)CCN(C(=O)NC2CCCCC2)CC1	6	1.8%	-37%[inhibitor]	-0.8	1.4	-4%
COc1ccc(CNC(=O)c2ccc3c(c2)NC(=O)C(CS(=O)(=O)Cc2ccccc2Cl)N3)cc1 (stereo unspecified)	4	-27%	x	1.8	x	x
CC(=O)Nc1ccc(NC(=O)c2oc3ccc4c(c3c2C)C(=O)CC(C)(C)O4)cc1	1	-13%	x	0.6	x	x
O=C(NC1CCCC1)c1ccc2c(=O)n(Cc3ccccc3)c(SCc3ccccc3)nc2c1	8	-9.0%	x	-0.4	x	x
COc1ccccc1CN1CCNC(=O)C1CC(=O)N(C)Cc1ccon1 (stereo unspecified)	-16	-4.0%	u	-0.2	-4.1	-6%
O=C(NNC(=S)NC1CC2C=CC1C2)c1cccnc1 (stereo unspecified)	11	x	-7%[15.4 µM]	0.0	1.0	0%
Cc1ccc(NC(=O)N2CCc3cc(S(=O)(=O)N4CCC(C)CC4)ccc32)cc1F	31	-20%	x	1.6	x	x
Cc1c(C(=O)N2CCCC2)oc2c1-c1nn(CC(=O)NCc3ccc(OC(C)C)cc3)cc1CC2	30	2.2%	x	2.0	x	x
O=C(OCc1nnc(-c2ccccc2)o1)c1ccc(CO)cc1	15	-1.2%	10%	0.0	0.0	6%
O=C(N/N=C/c1ccccc1)c1ccco1	3	1.0%	1%[15.4 µM]	-0.3	3.9	-9%
CCNC(=O)CC1SC(=Nc2ccc(Cl)cc2)N(CC)C1=O (stereo unspecified)	33	-1.9%	-69%	0.7	8.5	-1%
O=C(NC1CCCCC1)C1CC(O)CN1C(=O)OCc1ccccc1 (stereo unspecified)	-8	-2.7%	3%	-0.8	-0.8	9%
O=C(NCc1ccco1)C1CCCN(S(=O)(=O)c2cccc3nsnc23)C1 (stereo unspecified)	11	-1.3%	-36%[inhibitor]	-0.4	0.2	2%
O=C(CSc1nc(N2CCOCC2)nc(N2CCOCC2)n1)Nc1ccc([N+](=O)[O-])cc1	-3	-3.1%	-48%[inhibitor]	0.1	x	2%
CN(Cc1ccccc1)C(=O)C1CCN(S(=O)(=O)c2ccc3c(c2)oc(=O)n3C)CC1	-15	-0.6%	x	-0.3	x	x
O=C1C2Sc3[nH]c(=O)sc3C(c3ccccc3)C2C(=O)N1c1ccccc1 (stereo unspecified)	-6	0.4%	-1%	1.5	u	-6%
C/C(=N\NS(=O)(=O)c1ccc(C)cc1)c1cc2ccccc2oc1=O	-4	x	-1%[15.4 µM]	-0.3	-1.8	-30%

Random excerpt: 2 records from the list, in no set order.
SMILES	TRPML1 inh	ClpP mod	gsp agonist	TRPML1 ag	Menin-MLL FL inh	gsp antag
COc1ccccc1CN1CCNC(=O)C1CC(=O)N(C)Cc1ccon1 (stereo unspecified)	-16	-4.0%	u	-0.2	-4.1	-6%
O=C(OCc1nnc(-c2ccccc2)o1)c1ccc(CO)cc1	15	-1.2%	10%	0.0	0.0	6%

(list continues)
SMILES	TRPML1 inh	ClpP mod	gsp agonist	TRPML1 ag	Menin-MLL FL inh	gsp antag
COc1ccc(NC(=O)CSc2nnc(C3CC3)n2C)cc1S(=O)(=O)N1CCCCC1	-17	0.5%	29%	-0.6	x	2%
CC1CCN(S(=O)(=O)c2ccc(NC(=O)c3ccccc3F)cc2)CC1	-5	x	-3%[15.4 µM]	-0.4	0.9	1%
C#CCN(C(=O)c1ccc(OC2CCN(C(=O)CCOC)CC2)cc1)C1CCCCC1	9	1.5%	-2%	0.9	-2.2	-4%
Cn1c(=S)oc2ccccc21	-1	x	4%[15.4 µM]	0.3	2.5	-13%
O=C(CCCOc1ccccc1)NCC1CCCO1 (stereo unspecified)	-4	0.6%	u	-0.4	2.6	-3%
Cc1ccc([C@H]2C[C@H](O)[C@@H](n3cc(C4CC4)nn3)CN2C(=O)c2cccs2)cc1	2	1.6%	-35%	-0.4	x	x
CC(C(=O)O)N1C(=O)/C(=C/C=C/c2ccco2)SC1=S (stereo unspecified)	-18	-3.1%	33%	0.5	u	2%
COc1ccc(-c2nnn(CC(=O)N3CCN(c4ccccc4OC)CC3)n2)cc1OC	-8	-2.2%	2%[15.4 µM]	0.4	6.7	-8%
Cn1cc(C(=O)c2ccc(Cl)cc2Cl)cc1C(=O)NN	13	x	-15%	0.9	-0.9	7%
Cc1cc(C)c(NC(=O)c2cc(=O)c3ccccc3o2)c(C)c1	4	-1.2%	-97%[inhibitor]	-0.1	6.4	-3%
COc1ccc(OC)c(/C=N\NC(=O)c2cc3c(ccc4ccccc43)o2)c1	-3	4.2%	44%	-0.4	x	u
Brc1ccc(-c2csc(/N=C/N3CCOCC3)n2)cc1	14	u	42%	1.0	0.9	-21%
O=C1C=C(c2cc(Cl)cc(Cl)c2)C[C@@H](c2ccc3c(c2)OCO3)C1	9	0.2%	x	0.1	x	-5%
Cc1cccc(OCc2nnc(SCC(=O)NCC3CCCO3)n2C)c1 (stereo unspecified)	10	x	10%[15.4 µM]	-0.7	-2.6	-5%
CCN(CC)S(=O)(=O)c1ccc(N/N=C/c2cc(OC)ccc2O)nc1	17	-5.8%	1%	-0.3	12	7%
CCN(CC)CCCNC(=O)/C(=C\c1cccn1C)NC(=O)c1cccs1	-7	-0.5%	7%[15.4 µM]	0.0	4.6	4%
CC(C)[C@H](N)C(=O)N[C@H]1CCC2C3CC=C4C[C@@H](O)CC[C@]4(C)C3CC[C@@]21C (stereo partly specified)	-1	-0.4%	8%	0.7	x	x
O=C(NCc1cccs1)C1CCC(=O)N(Cc2cccc(C(F)(F)F)c2)C1 (stereo unspecified)	13	-0.9%	1%[15.4 µM]	0.3	0.2	9%
CCOCCCN1C(=O)c2ccccc2CC1(C)C(=O)NC1CCCCC1 (stereo unspecified)	-10	1.3%	x	-0.2	x	x
CCOc1cc(Br)c(CC(=O)NC2CCCCCC2)cc1OCC	7	x	-28%	1.6	-0.1	-25%
COc1cc(NC(=O)CN(C)S(=O)(=O)c2ccc3[nH]c4c(c3c2)CCCC4)cc(OC)c1OC	-13	-9.8%	x	1.4	x	x
CC1SC(C)C(=O)N(CC(=O)Nc2ccc([N+](=O)[O-])cc2)C1=O (stereo unspecified)	15	0.4%	2%[15.4 µM]	0.4	-11	-9%
COc1ccccc1NC(=O)c1cc2c(CO)cnc(C)c2oc1=Nc1cc(OC)c(OC)c(OC)c1	-6	0.7%	-6%[15.4 µM]	-1.2	-12	-16%
Nc1nc2c(s1)C(=O)CC(c1ccccc1)C2 (stereo unspecified)	-10	-1.3%	0%	1.4	-1.3	1%
N#Cc1c(NC(=O)CSc2nnc(-c3ccncc3)n2CC2CCCO2)sc2c1CCCC2 (stereo unspecified)	5	0.4%	0%[15.4 µM]	0.2	2.0	-22%
Cc1ccc([N+](=O)[O-])c(C(=O)N/N=C/c2cccnc2)c1	18	x	1%	1.2	-1.5	-5%
O=C(NCCCNC(=O)c1ccccc1Cl)c1cnccn1	5	x	-1%	0.1	-1.6	8%
CN(CCOC(=O)c1ccc2c(c1)OCCO2)Cc1ccccc1	36	3.0%	7%	1.9	2.1	-10%
Cc1cc(NC(=O)CN2CCN(c3ccccn3)CC2)ccc1Br	8	-6.3%	18%	0.0	0.0	-7%
CS(=O)(=O)N1CC2CCCN2c2cc(C(F)(F)F)ccc21 (stereo unspecified)	-4	x	-8%	0.1	u	0%
Cn1c(=O)c2c(nc(CN3CCN(C(c4ccccc4)c4ccccc4)CC3)n2CCCO)n(C)c1=O	13	x	18%	1.0	-0.4	-9%
